# D2 agonist: activates the human D2 dopamine receptor | DiscoveRx PathHunter D2 beta-arrestin, luminescence, 90 min; 100% = 57 uM dopamine signal | activation, % (test concentration not listed) | actives 0.084% (n = 360,000) | AID 624465; in the data active = activation above about 40%; inconclusive = about 15% to 40%; inactive = below about 15%; further: compound concentration not given in the record; the text of the record calls up to 30% inactive
# Target sequence (P14416 whole entry, looked up): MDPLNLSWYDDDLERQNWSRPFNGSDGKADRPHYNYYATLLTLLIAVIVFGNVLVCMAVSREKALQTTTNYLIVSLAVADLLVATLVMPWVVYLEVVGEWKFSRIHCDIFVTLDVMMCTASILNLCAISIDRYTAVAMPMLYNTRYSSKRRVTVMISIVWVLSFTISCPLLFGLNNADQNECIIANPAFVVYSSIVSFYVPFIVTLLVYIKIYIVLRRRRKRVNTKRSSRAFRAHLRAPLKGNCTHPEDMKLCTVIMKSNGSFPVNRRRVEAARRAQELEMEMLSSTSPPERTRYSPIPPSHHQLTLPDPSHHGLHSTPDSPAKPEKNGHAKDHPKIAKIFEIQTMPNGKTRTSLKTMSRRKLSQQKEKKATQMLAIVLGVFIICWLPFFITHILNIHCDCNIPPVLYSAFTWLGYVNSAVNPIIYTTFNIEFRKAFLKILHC
#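 Agonist mode: compounds alone added to overnight-plated D2 PathHunter cells for 90 min at 37 C, with 57 uM final dopamine (EC100) defining full response. Beta-arrestin recruitment detected by chemiluminescent reagent, read after 1 h at ambient temperature.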
# ClpP mod: qHTS Assay for Activators of ClpP | AID 651965, 2013 | Potency, µM (top dose mostly 57.5 µM), for inactives: at the top dose activity change, negative = active | actives 1.9% (n = 340,000) | ATP-dependent Clp protease proteolytic subunit (Bacillus subtilis (strain 168)), P80244 | purified B. subtilis ClpP, FRET peptide cleavage, 20 min; active = well fitted falling curve with a large enough effect; inconclusive = small, poorly fitted or top-dose-only effect; inactive = no such curve, though single readings can be large or run the other way; further: potency means the concentration at half of the fitted maximal effect; the source files actives as falling curves though it sought activators and does not explain the sign; nearly all actives have a fitted effect of over 65% in size; many hits overshoot -100%
# Target sequence (P80244 whole entry, looked up): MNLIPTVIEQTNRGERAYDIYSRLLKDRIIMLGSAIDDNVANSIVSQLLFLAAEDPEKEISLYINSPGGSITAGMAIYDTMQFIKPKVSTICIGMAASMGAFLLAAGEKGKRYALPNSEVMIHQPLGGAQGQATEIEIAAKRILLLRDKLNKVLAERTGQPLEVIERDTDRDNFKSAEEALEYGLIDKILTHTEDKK
#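 ClpP 10 microg/mL final, pH 8 Tris/KCl buffer with BSA, glycerol, Tween-20; compound pinned in; FRET-FV substrate; RT 20 min; Ex320/Em430; ΔFRET vs ADEP 5.8 microM, DMSO, no enzyme.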
# gsp ag: gsp mutant agonism. Potency, µM (doses to about 76.9 µM), inactives show top-dose activation (cAMP increase), most hits filed as activators. gsp mutant cells, cAMP HTRF, 30 min; control for the full effect not named in the record. actives 0.13% (n = 340,000); active = well fitted activation curve with a large enough effect; inconclusive = small, poorly fitted or top-dose-only effect, or another doubt; inactive = no such curve, though single readings can be large or run the other way; cell line not stated here;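 further: phosphodiesterase inhibitor Ro 20-1724 added with compounds to block cAMP breakdown; potency means the concentration at half of the fitted maximal effect; nearly all actives have a fitted effect of over 60% in size; about a fifth of the inactives were tested at one dose only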
#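 Cells in DMEM/10% FBS with G418 were pretreated with compounds in DMSO plus […] (300 uM stock) for 30 min at 37C. cAMP was measured by HTRF (cAMP-d2 plus anti-cAMP antibody-K) after 30 min at room temperature.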
# PINK1 modulator: changes PINK1 expression | PINK1 immunofluorescence, high-content cytometry, 24 h | actives 0.2% (n = 410,000) | Potency, µM (highest dose often 76.6 µM), for inactives: at the highest dose activation (PINK1 increase), most hits filed as activators | AID 624263; active = well fitted activation curve with a large enough effect; inconclusive = small, poorly fitted or top-dose-only effect; inactive = flat fitted curve, though single readings scatter; cell line not stated here;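 further: potency means the concentration at half of the fitted maximal effect; % of control where 0% means no effect; nearly all actives have a fitted effect of over 65% in size; a mitochondrial uncoupler was the plate control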
#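 Compound titrations (5 concentrations, 24 h) on a stable cell line; DMSO and CCCP controls. Endpoint: fixed-cell PINK1 immunofluorescence with mitochondrial, cell and nuclear markers, scanned by microplate cytometer.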
# Sfp PPTase inh: Sfp phosphopantetheinyl transferase inhibition | Q9F4F7 | Biochemical Sfp PPTase activity, qHTS | Potency, µM, for the others: max response, negative = inhibition, hits mostly inhibitors | actives 3.5% (n = 310,000) | AID 1490; active means well fitted inhibition curve with a large enough effect; inconclusive means small, poorly fitted or top-dose-only effect, or another doubt; inactive means no such curve, though single readings can be large or run the other way;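 further: the enzyme is Sfp with the accession as filed and its product quenches rhodamine fluorescence; potency means the concentration at half of the fitted maximal effect; 0% = enzyme reaction without inhibitor and -100% = no enzyme wells; top concentration of the series not given in the record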
#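 Fluorescence-quenching assay with 15 nM Sfp, 5 uM rhodamine-CoA and 12.5 uM BHQ-2-labelled ybbR peptide in pH 7.6 Hepes/MgCl2 buffer. Enzyme was pre-incubated with compound for 15 min at room temperature. Rate was taken from the 30-min fluorescence change (525/598 nm).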
# Menin MLL FP FL: menin-MLL binding inhibition, fluorescein peptide; 290,000 tested, under 10 active; FP activity change, % at 61.4 µM; Fluorescence polarization, fluorescein-MLL peptide displacement from menin; inconclusive = falling polarisation curve, or a change in total fluorescence; inactive = total fluorescence flat and polarisation flat or rising; no compound was filed as active; the % refers to the polarisation; negative = inhibition;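 further: % of control where 0% means no effect; inhibitors lower the polarisation; unlabelled MLL peptide was the positive control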
# gsp antag: antagonizes gsp, the McCune-Albright syndrome mutation. AID 624288. Potency, µM (doses to about 76.9 µM), for inactives: at the highest dose activity change, negative = inhibition, actives largely listed as inhibitors. gsp-mutant cells, cAMP HTRF, 30 min; control for the full effect not named in the record. actives 0.4% (n = 340,000); active = falling curve of any shape with a large fitted effect; inconclusive = falling curve, mostly with a smaller effect; inactive = flat or rising curve; cell line not stated here;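 further: intracellular cAMP measured with PDE inhibitor Ro 20-1724 present during compound exposure; potency means the concentration at half of the fitted maximal effect; on the % scale 0 is the no-effect control and ±100 the full control effect; nearly all actives have a fitted effect of over 65% in size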
#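 Measurement of cellular cAMP by homogeneous time-resolved fluorescence following a 30 min compound exposure at 37C. The PDE inhibitor […] was present throughout; the assay buffer was DPBS with 0.05% BSA and 0.005% Tween 20.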
# * = called active by the depositor; ? = inconclusive; . = not tested or not shown; [ ] = another dose, or the depositor's remark.
SMILES,D2 agonist,ClpP mod,gsp ag,PINK1 modulator,Sfp PPTase inh,Menin MLL FP FL,gsp antag
Cc1ccc(-c2cnc(C(O)c3cccc(Cl)c3)[nH]2)cc1 (stereo unspecified),-3.6,1.4%,.,4.3%,.,.,.
CC(=O)c1ccc(NC(=O)N2C3CCC2CC(O)(c2cccnc2)C3)cc1 (stereo unspecified),0.9,.,9%,-0.1%,11%,-4.5,8%
COc1ccccc1C(C[N+](=O)[O-])c1c(N)n(C)c(=O)n(C)c1=O (stereo unspecified),-2.7,0.9%,0%,-1.3%,6%,-0.8,0%
CCCn1cnc2c(=O)oc3ccccc3c21,-5.3,1.8%,?,-0.2%,17%,2.5,11%
CC(C)CCC(O)(CCC(C)C)C(=O)NNc1ccccc1,-0.9,1.0%,20%,0.3%,11%,0.3,-4%
Cc1ccc(C(=O)NC2CC3CCC(C2)N3C)cc1 (stereo unspecified),-4.7,3.8%,2%,-0.6%,.,.,8%
O=C(Nc1ccc(S(=O)(=O)Nc2ncccn2)cc1)c1cccc(Br)c1,2.2,0.4%,0%[15.4 µM],-1.1%,16%,0.9,-4%
Cc1cnnc2c1-c1nonc1CC2,-2.4,1.5%,-24%,0.6%,10%,-0.3,-10%
N#Cc1cc(-c2ccccc2)[nH]c1-c1nccc2ccccc12,0.0,4.5%,-25%,0.7%,15%,4.6,1%
O=C(Cc1ccc(-c2ccccc2)cc1)NC(c1ccccc1)c1ccccc1,2.8,-5.9%,-1%,14%,?,8.8,1%
Cc1cc(C)c(S(=O)(=O)N(CC(=O)O)C2CCCCC2)c(C)c1,-2.5,-2.4%,?,-1.6%,11%,1.6,-1%
Cc1ccc(S(=O)(=O)N(C)c2ccc(OC(=O)c3ccc(N4CCCC4=O)cc3)cc2)cc1,-1.1,5.2%,-29%,4.7%,11%,-0.4,9%
COC(=O)c1c(NS(=O)(=O)c2ccccc2)csc1C,-0.1,?,4%[15.4 µM],2.7%,-2%,3.6,-10%
O=C(c1cccc(N2C(=O)C3CC=CCC3C2=O)c1)N1CCCc2ccccc21 (stereo unspecified),-2.4,-0.9%,2%[15.4 µM],1.8%,-4%,-2.1,2%
COc1ccc(C2c3ccc4ccccc4c3Oc3ncn(CCN4CCOCC4)c(=N)c32)cc1OC (stereo unspecified),-3.8,-5.3%,17%,0.5%,-2%,2.6,4%
O=[N+]([O-])c1cc(C(F)(F)F)ccc1NCC1CCCO1 (stereo unspecified),1.0,-0.7%,-4%[15.4 µM],1.5%,10%,?,11%
COc1ccc(OC)c(NC(=O)COC(=O)c2ccc(OC)c(S(=O)(=O)N3CCCC3)c2)c1,-4.2,7.0%,-16%,2.9%,.,.,-11%
Cc1cc(C)nc(N(C#N)CC(=O)Nc2ccccc2)n1,-3.2,-2.0%,-27%,-0.5%,-1%,-1.1,-7%
Cc1ccc(C2=NCCn3nc4cc(C(F)(F)F)ccc4c32)cc1,-2.0,-4.4%,6%,8.0%,.,.,3%
CC(=O)N1CCN(C(=S)NCc2ccccc2)CC1,3.3,-0.7%,6%,0.7%,-19%,5.9,4%
Cc1ccc(N(C)S(=O)(=O)c2cccc(C(=O)OCC(=O)N(C)Cc3ccccc3)c2)cc1,4.7,-1.1%,-66%[inhibitor],-0.5%,.,.,.
Cc1ccc(C(C(=O)NC2CCCCC2)N(Cc2ccco2)C(=O)Cn2cnc3ccccc32)cc1 (stereo unspecified),-1.0,-1.2%,-19%,-1.5%,2%,0.1,2%
O=[N+]([O-])c1cccc(-c2nnc(-c3ccc4c(c3)OCO4)o2)c1,4.4,1.6%,7%[15.4 µM],8.5%,-26%,3.7,5%
CCN(CC(=O)Nc1c(F)cccc1F)C(=O)c1ccc(-c2ccccc2)cc1,1.8,1.0%,?,2.4%,.,.,1%
O=C(NC1CCCCCC1)C1Cc2ccccc2CN1C(=O)c1ccco1 (stereo unspecified),-0.9,.,6%[15.4 µM],-1.3%,-49%,-5.2,-4%
CCC(=O)N1N=C2CC(C)(C)OCC2C1c1ccccc1 (stereo unspecified),-4.4,-0.7%,-10%[15.4 µM],0.8%,16%,4.3,3%
COc1cccc(C(=O)Nc2cccc(OCC(=O)O)c2)c1,-2.6,-0.7%,2%,6.2%[38.3 µM],13%,5.1,2%
O=C(CSc1nnnn1-c1ccccc1)Nc1ncc(Cc2cc(Cl)ccc2Cl)s1,-1.7,0.1%,-21%,-1.5%,-23%,-2.3,5%
CC1(C)CC[C@]2(C(=O)O)CC[C@]3(C)C(=CCC4[C@@]5(C)CC[C@H](O)C(C)(C)C5[C@H](O)C[C@]43C)[C@@H]2C1 (stereo partly specified),3.6,1.1%,.,3.5%,.,.,-17%
COc1cccc(Cn2c(=O)c(C)nc3cnc(N4CCN(C)CC4)nc32)c1,.,.,.,-0.3%,4%,12,.
CN1CCN(c2nc(-c3ccccn3)nc3ccccc23)CC1,-0.4,-0.3%,3%,-3.1%[38.3 µM],-4%,10,16%
Cn1cc(C[C@H](NC(=O)OC(C)(C)C)C(=O)N[C@@H](CO)Cc2ccccc2)c2ccccc21,-1.0,-13%,27%,-1.1%,.,.,-9%
CN1CCN(c2ncc3nc(-c4ccccc4)c(=O)n(Cc4ccc(F)cc4)c3n2)CC1,.,.,.,-1.2%,-3%,-5.4,.
CSc1ccccc1-n1nnnc1SCC(=O)Nc1ccccc1C,0.5,0.3%,-22%,5.9%[38.3 µM],7%,3.1,-22%
COc1ccc(NC(=O)Nc2cccc(C)n2)cc1,0.3,2.1%,-123%[inhibitor],1.7%,24%,1.7,-7%
COc1ccc(-n2c(SCC(N)=O)nnc2-c2ccccc2F)cc1,-1.7,-1.6%,1%,-1.7%,-15%,4.3,-6%
Cc1ccc(N(CC(O)CN2CCCC2)S(=O)(=O)c2ccc(C)cc2)cc1 (stereo unspecified),0.3,-15%,5%[15.4 µM],-1.6%,2%,2.4,2%
CCN(CC)S(=O)(=O)c1ccc(C(O)=C(C#N)c2nc3ccccc3n2C)cc1,0.3,.,-11%,-0.1%,.,.,-2%
FC(F)(F)c1nnc2ccc(N3CCCCC3)nn12,2.2,.,1%[15.4 µM],-0.6%,.,.,2%
CCCc1nc(C)cc(N2CCN(c3ccccc3)CC2)n1,1.4,.,-17%[15.4 µM],4.4%,?,6.1,-3%
O=C(Cn1cnc2ccccc2c1=O)NCc1cccs1,-3.1,.,-9%[15.4 µM],2.7%,7%,-1.3,25%
Cc1cc(C)c(OC2(c3ccccc3)OC(=O)c3ccccc32)c(C)c1 (stereo unspecified),-1.4,-0.6%,-19%,6.3%[38.3 µM],-6%,5.8,-3%
Oc1ccc(Br)cc1/C=N/n1c(-c2ccccc2)n[nH]c1=S,6.6,-1.4%,-13%,2.4%,56µM*,-1.1,-23%
COc1ccc(CCNC(=O)c2cccc(Br)c2)cc1OC,2.9,0.3%,0%,2.3%,-3%,-1.2,-12%
COc1c(Cl)cc(Cl)cc1/C=N/NC(=O)c1nnn(-c2nonc2N)c1CN1CCC(C)CC1,-0.9,1.1%,-19%,5.2%,15%,7.9,-11%
Cc1ccccc1NC(=O)Nc1cnccn1,-3.3,-14%,7%,-0.9%,6%,3.6,1%
COc1cc2c(cc1OC)CN(S(=O)(=O)c1ccc3c(c1)OCCO3)CC2,1.1,-7.1%,4%,-3.1%,6%,-1.9,-7%
COc1cccc(-n2cc(CN(C)Cc3nc(Cc4cccc(F)c4)no3)cn2)c1,6.5,-2.5%,-13%,3.3%,-1%,-1.6,-1%
O=C(Cc1ccsc1)NCC(=O)Nc1ccc(F)c(F)c1,0.6,-1.6%,-31%[inhibitor],0.3%,13%,.,-3%
COc1cccc(-c2csc(N3CCN(CC(=O)Nc4ccc5c(c4)OCO5)CC3)n2)c1,-0.8,-0.5%,0%,4.6%[38.3 µM],-5%,3.7,-13%
# Next section:
SMILES,D2 agonist,ClpP mod,gsp ag,PINK1 modulator,Sfp PPTase inh,Menin MLL FP FL,gsp antag
O=C(C1CC(=O)N(c2ccccc2)C1)N1CCCCCC1 (stereo unspecified),2.6,0.3%,-10%,0.2%,23%,-5.7,4%
Cc1noc(C)c1S(=O)(=O)N(CC(=O)NC(C)c1ccccc1)c1ccc(C(C)C)cc1 (stereo unspecified),-3.9,2.6%,?,3.4%,25%,.,-6%
C[C@H](O)[C@@H]1C(=O)N2CCc3ccc(-c4cccc(F)c4)cc3[C@@H]2C[C@@H]1N(C)C(=O)Nc1ccccc1,0.7,-2.1%,.,-0.1%,.,.,?
COc1cccc(/C=N/n2cnc3cc(C)c(C)cc32)c1OC,0.2,.,6%[15.4 µM],7.6%,1%,2.3,1%
O=C(C1=C[C@@H](c2ccc(C(F)(F)F)cc2)C[C@@H](OCc2ccc(CO)cc2)O1)N1CCOCC1,-1.5,-0.4%,.,0.3%,-4%,-2.6,-5%
Cc1ccc(S(=O)(=O)N2CCN(C(=O)c3cc(S(=O)(=O)N(C)C)ccc3N3CCCC3)CC2)c(C)c1,-6.3,3.7%,9%,1.5%,.,.,-17%
COC(=O)c1ccc2c(=O)n(CC3CCCO3)c(SCC(=O)Nc3ccc(OC)cc3OC)nc2c1 (stereo unspecified),-1.7,-0.3%,8%,5.3%,?,0.7,5%
Cc1cc(F)cc(-c2cc(C(=O)NCc3ccco3)[nH]n2)c1,-1.4,-3.2%,.,1.8%,.,.,.
COC(=O)c1cccnc1-n1c(=O)c2cccnc2n(Cc2cccc(C(F)(F)F)c2)c1=O,-4.1,0.8%,8%,-0.2%,15%,0.3,1%
CCOc1ccccc1C1C2C(=O)N(c3ccccc3)C(=O)C2ON1c1ccccc1 (stereo unspecified),1.9,-1.1%,-10%,-2.8%[38.3 µM],0%,1.2,-15%

# From PubChem
